Ab BasE inh = blocks the Acinetobacter baumannii siderophore enzyme BasE | inhibition, % (concentration not given with the values) | purified BasE, fluorescence polarization binding displacement | AID 485350 | 0.1% of 84,000 active;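 active means both replicates above 25% with normal brightness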;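 further: 0% = negative plate control signal and 100% = positive plate control signal; stock transfer was 100 nL into about 30 µL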
KSHV LANA nucl = LANA-nucleosome interaction inhibition. z-score (test concentration not listed). FITC-LANA1-23 / chicken nucleosome fluorescence polarization; active compounds read low. 0.3% of 51,000 active. AID 720717;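 active means both repeat wells score below -2 in polarization z-score versus plate sample wells, excluding overly bright wells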;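 further: 100 nL library stock added to about 30 µL; numbers are from one replicate; some results filed as inactive read as strong as hits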
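test system = FITC-LANA peptide and chicken nucleosomes | amount = 240 nM purified chicken nucleosomes (480 nM peptide binding sites), final | reagent = 50 nM FITC-LANA1-23 probe | medium = TEN-BT buffer, pH 7.5 | doses = single compound addition by pin transfer, 100 nL per well | timing = 10–45 min, room temperature | detection = fluorescence polarization | repeats = duplicate plates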
An asterisk follows results filed as active; nt = not tested or not shown; & = joins results of further samples.

SMILES | Ab BasE inh | KSHV LANA nucl
COc1cccc(C2CC(c3cccs3)=NN2C(=O)CSC2=NN3CCCC(=O)N=C3S2)c1OC (stereo not given) | -0.2 | 0.463
COC(=O)c1cnc(SCc2c(Cl)cccc2Cl)n1C | 0.5 | -0.486
CC1CC(C)CN(S(=O)(=O)c2ccc(C(=O)NC(C)(C)C)cc2)C1 (stereo not given) | -1.0 | nt
CCN(CC(=O)Nc1ccccc1C(=O)c1ccccc1)CC(=O)NC1CCS(=O)(=O)C1 (stereo not given) | -0.2 | nt
CCCCc1nc(NCCO)c(C#N)c2c1CCCC2 | 0.8 | 0.603
CCNc1cc(N2CCN(c3ccccc3)CC2)c2noc3c2c1C(=O)c1ccccc1-3 | -20.3 | 0.124
O=C1Nc2ccccc2/C1=N\N1CCN(Cc2ccc(Cl)cc2)CC1 | 5.0 | nt
O=C(Nc1csc2ccccc12)N1CCSCC1 | nt | 1.16
O=C(Oc1ccccc1)N1CCCC1 | -0.7 | nt
CCCCNS(=O)(=O)c1ccc(N)cc1 | -0.8 | 0.763
CN(C(=S)Nc1ccc(OC(F)F)cc1)C1CCCCC1 | 3.1 | 0.577
N#CC1(NC(=O)CSc2ccccc2F)CCCCC1 | 1.5 | nt
CCN(CC(=O)NCC12CC3CC(CC(C3)C1)C2)Cc1nc2ccccc2c(=O)[nH]1 | 2.1 | nt
CC(C)(C)c1ccc(Oc2ccc(NC(=O)c3ccccc3)cn2)cc1 | -0.4 | nt
O=C1OC(c2ccccc2)Cc2ccccc21 (stereo not given) | 2.3 | nt

Entries of single compounds, quoted from the list. Screens in order: Ab BasE inh, KSHV LANA nucl
N#CC1(NC(=O)CSc2ccccc2F)CCCCC1 is listed with 1.5, nt
O=C1OC(c2ccccc2)Cc2ccccc21 (stereo not given) is listed with 2.3, nt

(continued)
SMILES | Ab BasE inh | KSHV LANA nucl
COc1ccccc1-c1c(C)nn2c(N3CCc4ccccc43)cc(C)nc12 | 1.5 | 0.393
Oc1oc(-c2ccccc2)nc1C=Nc1cccnc1 | -3.1 | 1.59
CCOC(=O)c1c(C)[nH]c(C)c1C(=O)COC(=O)C1Cc2ccccc2CN1C(C)=O (stereo not given) | -2.0 | nt
CC(=O)n1cc(/C=N/NC(=O)c2cccc(O)c2)c2ccccc21 | 27.7* | 0.467
CSc1ccccc1NC(=O)C1CCCC1 | 1.9 | nt
Cc1cc(NC(=O)CSc2nc3ccccc3c(=O)n2CCCN2CCC(C)CC2)n[nH]1 | 0.6 | 0.11
COc1ccc(CNC(=O)C2CCN(c3cc(C(=O)Nc4cccc(OC)c4)ccn3)CC2)cc1 | -0.4 | -0.568
CN(C)C(CNCc1ccc(-n2cnc3ccccc32)cc1)c1ccco1 (stereo not given) | -5.5 | nt
CCc1ccc(Oc2c(CC(=O)O)oc3cc(O)c(CC)cc3c2=O)cc1 | 0.4 | -0.308
CCC(C(=O)O)n1cnc2ccccc2c1=O (stereo not given) | 1.0 | -1.34
CC(C)CNC(C)C(=O)Nc1ccc(S(N)(=O)=O)cc1 (stereo not given) | -0.3 | nt
COc1ccc(OCCOC(=O)/C(=C/c2cccs2)c2cccs2)cc1 | 0.1 | nt
CNC(=O)c1cncc(C(=O)NC)c1 | 1.4 | nt
Cc1ccc2oc(C(=O)NCc3ccncc3)cc(=O)c2c1 | 1.6 | -1.49
CCSc1nnc(SCc2nc(N)nc(Nc3ccccc3C)n2)s1 | 1.5 | nt
FC(F)(F)c1cc(C#CCN2CCCCC2)cc(C(F)(F)F)c1 | -0.1 | nt
CC(OC(=O)C1CCN(c2ccc(C(F)(F)F)cn2)CC1)C(=O)Nc1ccccc1F (stereo not given) | 1.2 | nt
Cc1onc(C(=O)N(C)C)c1-c1ccnc(=S)[nH]1 | 2.4 | nt
Cc1cccc(-c2nc(CS(=O)CC(=O)NCC3CCCO3)c(C)o2)c1 (stereo not given) | -1.7 | -0.433
CC1(C)NN=C(N)SC1=O | 6.5 | -0.422
C/C(=N\NC(=O)Cc1ccccc1)c1cccnc1 | 0.8 | -0.124
CC1(C)CC2CC(C)(CN2C(=O)c2cc3ncc(Br)cn3n2)C1 (stereo not given) | 2.2 | 0.271
Cc1cccc2c(=O)c(C(=O)NCc3cccs3)c[nH]c12 | 0.2 | 1.13
O=C(Cc1ccccc1)N/N=C/c1ccccc1C(=O)O | 5.8 | -2
COc1cc(C2C(C(=O)Nc3ccccn3)=C(C)NC3=C2C(=O)CCC3)cc(OC)c1OC (stereo not given) | 1.6 | -1.17
CS(=O)(=O)c1ccc(C(=O)OCc2ccccc2C#N)cc1 | 1.1 | nt
C=CCC1C=C(C)CC(CC=C)N1CC(O)C(F)(F)C(F)(F)C(F)(F)F (stereo not given) | -2.8 | 0.957
CC(=O)N(CC(C)C(=O)O)c1c(I)cc(I)c(N)c1I (stereo not given) | 0.5 | -0.612
O=C(/C=C/c1ccccc1)NC(=S)Nc1ccc(-c2nc3ccccc3o2)c(O)c1 | 1.5 | 0.172
O=C(CCOc1ccccc1F)N1CCc2ccccc21 | 2.7 | nt
O=C(Nc1ccn(Cc2ccccc2F)n1)Nc1ccc(F)cc1F | 2.1 | -0.036
COCCn1c(C)cc(C(=O)COC(=O)c2cc(OC)c(OC)cc2OC)c1C | -1.3 | nt
O=C(COc1ccccc1)OCC(=O)N1CCCc2ccccc21 | 1.3 | nt
Cc1cc(C)nc(/N=C(/N)NO)n1 | -0.6 | nt
CCc1ccc2c(c1)=C(c1[nH]c(=S)[nH]c1O)C(=O)N=2 | -2.1 | nt
COC(OC)c1nc(SCC(=O)Nc2ccc(C(C)C)cc2)ncc1C(=O)O | 1.5 | nt
Cc1cc(C)c2c(n1)sc1c(=O)n(/N=C/c3ccccc3)cnc12 | -4.0 | nt
CCOC(=O)c1c(C)n(C)c2ccc(OC(=O)OC)cc12 | -2.2 | 0.155
CC1CC(=O)Nc2ccccc2S1 (stereo not given) | 2.4 | -0.362
Cc1nc(SCC#N)c2c3c(sc2n1)CCCC3 | 3.1 | 0.915
COC(=O)Cn1c(C(O)c2ccccc2)nc2ccccc21 (stereo not given) | -0.6 | 0.742
CC(C)COC(=O)CCn1[nH]c(=O)c2ccccc2c1=O | 1.8 | nt
C[C@@H]1O[C@@H](O[C@H]2[C@H](Oc3cc(O)c4c(c3)O[C@H](c3ccc(O)cc3)CC4=O)O[C@H](CO)[C@@H](O)[C@@H]2O)[C@H](O)[C@H](O)[C@H]1O | 1.3 | 0.169
CCCc1cc(=O)[nH]c(Nc2ccccc2)n1 | -4.3 | 1.52
CCOC(=O)c1cc(C#N)c(SCC(=O)OCc2ccc(C#N)cc2)nc1C | -2.2 | nt
CCn1c(=O)c(=O)[nH]c2cc(C(=O)NCc3ccc4c(c3)OCO4)ccc21 | -3.5 | nt
CCc1c(C)c(C#N)c2nc3ccccc3n2c1N1CCN(CCO)CC1 | -2.0 | nt
O=C(Cn1cnc2sccc2c1=O)NC1CCS(=O)(=O)C1 (stereo not given) | 0.9 | nt
Cc1ccc(CNC(=O)N2CCn3cccc3C2C)cc1 (stereo not given) | -1.3 | -0.332
Cc1[nH]c(=S)[nH]c(=O)c1Cc1ccccc1 | 2.1&1.6 | nt
Cc1ccc2nc(COC(=O)c3ccc4c(c3)OCCO4)cc(=O)n2c1 | 0.6 | nt
C=CCOc1cccc(C(=O)NCC)c1 | 1.2 | -0.478
CCOc1cc(N)c(Cl)cc1C(=O)NCC1CN(Cc2ccc(F)cc2)CCO1 (stereo not given) | nt | -0.0915
CCOC(=O)C1CCN(CC(=O)Nc2ccc(C(F)(F)F)cc2Cl)CC1 | 4.0 | -0.706
O=C(OC(C(=O)NC1CCCCC1)c1ccccc1)c1ccco1 (stereo not given) | -1.3 | -1.08
O=C1CCCN1CCCNS(=O)(=O)c1cccc(Br)c1 | 1.9 | nt
O=C(Nc1ccc(S(=O)(=O)N2CCCCC2c2cccnc2)cc1)c1ccc2c(c1)OCO2 (stereo not given) | 1.4 | -0.513
N#CC(C(=O)c1ccc(-c2nc3ccccc3s2)s1)c1nc2ccccc2s1 (stereo not given) | 0.3 | nt
ONC=Nc1nonc1-c1cccnc1 | 5.6 | nt
CCCc1c(C(=O)Nc2ncn[nH]2)cnn1-c1ccccc1 | 2.6 | nt

Molecules listed so far with an NH in an aromatic ring:
SMILES | Ab BasE inh | KSHV LANA nucl
CCN(CC(=O)NCC12CC3CC(CC(C3)C1)C2)Cc1nc2ccccc2c(=O)[nH]1 | 2.1 | nt
CCOC(=O)c1c(C)[nH]c(C)c1C(=O)COC(=O)C1Cc2ccccc2CN1C(C)=O (stereo not given) | -2.0 | nt
Cc1cc(NC(=O)CSc2nc3ccccc3c(=O)n2CCCN2CCC(C)CC2)n[nH]1 | 0.6 | 0.11
Cc1onc(C(=O)N(C)C)c1-c1ccnc(=S)[nH]1 | 2.4 | nt
Cc1cccc2c(=O)c(C(=O)NCc3cccs3)c[nH]c12 | 0.2 | 1.13
CCc1ccc2c(c1)=C(c1[nH]c(=S)[nH]c1O)C(=O)N=2 | -2.1 | nt
CC(C)COC(=O)CCn1[nH]c(=O)c2ccccc2c1=O | 1.8 | nt
CCCc1cc(=O)[nH]c(Nc2ccccc2)n1 | -4.3 | 1.52
CCn1c(=O)c(=O)[nH]c2cc(C(=O)NCc3ccc4c(c3)OCO4)ccc21 | -3.5 | nt
Cc1[nH]c(=S)[nH]c(=O)c1Cc1ccccc1 | 2.1&1.6 | nt
CCCc1c(C(=O)Nc2ncn[nH]2)cnn1-c1ccccc1 | 2.6 | nt

(listing goes on)
SMILES | Ab BasE inh | KSHV LANA nucl
CCN(c1ccccc1)S(=O)(=O)c1ccc2c(c1)C(C)(C)C(=O)N2C | 1.9 | 1.09
C=CCn1nnnc1NCc1ccccc1 | -0.2 | -0.164
Cc1cc(CNCC2CCCCC2)c(C)n1-c1nccs1 | -0.9 | nt
O=C(Cn1cnc2c(cnn2CCO)c1=O)N1CCCc2ccccc21 | -1.1 | -0.236
COc1ccccc1C(=O)ON1C(=O)CCC1=O | 2.5 | -0.292
CC(C)(CO)Nc1c[nH]c(=O)[nH]c1=O | 0.3 | 0.371
Cc1occc1C(=O)Nc1cc(C(C)(C)C)on1 | -1.1 | -1.25
CCOc1cnn(C)c(=O)c1OCC | 3.0 | 0.0035
O=c1[nH]cnc2c1CN=N2 | nt | 0.563
CN1CCN(S(=O)(=O)c2ccc3c(c2)C(=NO)c2cc(S(=O)(=O)N4CCN(C)CC4)ccc2-3)CC1 | 1.7 | -1.01
Cn1cnnc1SCc1nc2ccccn2c1Br | 3.3 | nt
CCOC(=O)c1c(NC(=O)CN2CCC3(CC2)OCCO3)sc(C)c1C | 1.4 | -1.49
COc1ccc(-c2ccnc(SCC(=O)N(C)C)n2)cc1 | -1.3 | -0.661
Cc1ccc(NC(=O)CS(=O)CC(=O)NC2CCN(Cc3ccccc3)CC2)c(C)c1 (stereo not given) | -1.8 | -0.0655
Cc1ccc(S(=O)(=O)NCCN2CCN(Cc3ccc(Br)s3)CC2)cc1 | 2.0 | nt
COc1ccc(-n2c(SCc3nc4ccccc4s3)nc3ccccc32)cc1 | -2.5 | nt
N#CC(C#N)=CNC1CCSC1 (stereo not given) | 2.0 | 0.028
CCOC(=O)c1c(/N=C/C2C(=O)NC(=S)NC2=O)sc2c1CCCCC2 | 9.3 | nt
CSc1ccccc1NC(=O)CN(C)C(=O)c1cnn(-c2ccccc2)n1 | 2.4 | nt
Cc1ccc(C(=O)C(C)Sc2nnnn2C)cc1 (stereo not given) | -4.7 | nt
Cc1ccc(CS(=O)Cc2ccc(C(=O)NCC3CCCO3)o2)cc1 (stereo not given) | -0.3 | -0.703
CC(C)CN1C(=O)S/C(=C\c2ccc(F)cc2)C1=O | 2.9 | -0.315
CCC(Cn1nnn(-c2ccccc2)c1=O)NC(=O)Cc1nn(CC)c(=O)c2ccccc12 (stereo not given) | -1.1 | -1.09
CC(C)c1nn2c(=O)cc(COc3cccc(NS(C)(=O)=O)c3)nc2s1 | -0.1 | -0.184
O=C(C(Sc1ccccc1)c1ccccc1)n1cnc2ccccc21 (stereo not given) | 2.6 | nt
COc1ccccc1NC(=O)Nc1nc(CC(=O)N2CCCC2)cs1 | -1.8 | 0.243
CN(C)c1ccc(C2OCCN2C(=S)Nc2ccccc2F)cc1 (stereo not given) | 1.0 | nt
CSc1ccc(C(=O)NC(=O)Nc2cc(C)on2)s1 | 3.2 | nt
Cc1cc(N2CC(=O)N(CCc3ccccc3)C(=O)C2)nc(-n2nc(C)cc2C)n1 | 0.9 | -0.746
O=C(CSc1nnnn1C1CC1)Nc1ccc2c(c1)CCC2 | 3.0 | nt
Cc1c(C(=O)OC2CCCCC2)sc2ncn(CC(N)=O)c(=O)c12 | 0.4 | -1.59
O=C(O)COCC(=O)Nc1nnc(C(F)(F)F)s1 | -1.2 | 1.38
Cc1ccc(NS(=O)(=O)c2c(C)noc2C)cc1 | 6.2 | 0.244
CC1CC(C)(C)NC(=S)N1CC(=O)Nc1ccc(Cl)cc1 (stereo not given) | 0.8 | -0.77
CCOc1ccccc1NC(=O)CCS(=O)(=O)c1ccc2c(c1)CCN2C(C)=O | -0.4 | -0.38
Cc1cccc(N2C(=O)CSC(C)C2=O)c1 (stereo not given) | nt | -0.542
COc1ccc2c(c1)CC/C(=C/c1cccc(O)c1)C2=O | 2.7 | nt
Fc1ccc(NC(=S)N2CCN=C2Nc2ccc(F)cc2)cc1 | -0.7 | 0.711
CCOc1cc(CO)cc(Cl)c1OCC(=O)Nc1ccccc1OC | -2.0 | -0.369
Cc1nn(C)c(C)c1N1C(=O)c2cccc3c(Br)ccc(c23)C1=O | 1.9 | 0.451
COC(=O)/C(C(C)=N)=C(\O)CSc1nnnn1-c1ccc(Cl)cc1 | -0.2 | nt

Screening results deposited in PubChem BioAssay by ICCB-Longwood Screening Facility, Harvard Medical School.

A portion of the library (hit frequency here may not be typical).
